Cruzain Triton: cruzain (T. cruzi) inhibition with detergent. purified cruzain, Z-FR-AMC fluorescence, 0.01% Triton. P25779. Potency, µM, inactives show max response, negative = inhibition, hits mostly inhibitors. 0.43% of 200,000 active;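 further: plate controls were neutral wells for no effect and buffer without enzyme for full effect; nearly all actives have a fitted effect of over 40% in size; top concentration of the series not given in the record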
Target sequence (P25779 123-467 limits assumed): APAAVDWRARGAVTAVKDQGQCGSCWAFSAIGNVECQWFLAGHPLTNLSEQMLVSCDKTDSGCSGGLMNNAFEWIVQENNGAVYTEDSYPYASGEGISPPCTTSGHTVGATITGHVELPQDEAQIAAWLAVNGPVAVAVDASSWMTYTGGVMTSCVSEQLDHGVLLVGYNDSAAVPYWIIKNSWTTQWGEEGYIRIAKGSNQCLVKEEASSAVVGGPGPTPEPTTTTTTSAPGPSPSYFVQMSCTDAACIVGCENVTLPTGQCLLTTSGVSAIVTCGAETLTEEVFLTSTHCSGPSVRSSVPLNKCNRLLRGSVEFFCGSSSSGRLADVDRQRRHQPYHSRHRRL
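Compounds were screened in titration against cruzain (1.5 nM) with 0.01% Triton X-100 to counter colloidal aggregation. Activity was the AMC fluorescence increase over 60 s after adding 2 uM Z-FR-AMC at pH 5.5.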
RE007 growth inh: less growth of the S. pombe RE007 Vpr strain. 0.21% of 360,000 active. S. pombe RE007 Vpr strain, BacTiter-Glo ATP luminescence, 24 h; control for the full effect not named in the record. Potency, µM (top dose mostly 92.2 µM), without a hit: top-dose activity change, negative = less growth; active = well fitted falling curve with a large enough effect; inconclusive = small, poorly fitted or top-dose-only effect; inactive = no such curve, though single readings can be large or run the other way;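 further: on the % scale 0 is the no-effect control and ±100 the full control effect; nearly all actives have a fitted effect of over 50% in size; the assay follows cell death caused by Vpr and the record does not say whether a fall means rescue or toxicity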
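Fission yeast strain RE007, carrying one chromosomally integrated HIV-1 vpr copy, was seeded at OD 0.01 in PMG+AL medium with 23 nL pinned compound. After 24 h at 30 °C and 99% humidity, viability was read by BacTiter-Glo luminescence.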
SARS PLpro yeast: blocks SARS-CoV papain-like protease in a yeast assay | S. cerevisiae expressing SARS-CoV PLpro, growth rescue; control for the full effect not named in the record | Potency, µM (titrated, usually from 32.9 µM), without a hit: top-dose activity, positive = growth rescue | 0.19% of 330,000 active | AID 485353; active means well fitted rising curve with a large enough effect; inconclusive means small, poorly fitted or top-dose-only effect; inactive means no such curve, though single readings can be large or run the other way; further: 0% is about no effect; nearly all actives have a fitted effect of over 55% in size; growth read by luminescence after 48 h
2A StopGo: FMDV 2A StopGo reporter, luciferase signal | human cells with a luciferase reporter of 2A StopGo recoding; control for the full effect not named in the record | Potency, µM (series often up to 57.9 µM), for inactives: top-dose signal change, negative = less light | 1.2% of 410,000 active | AID 1159524; active = well fitted falling curve with a large enough effect; inconclusive = small, poorly fitted or top-dose-only effect; inactive = no such curve, though single readings can be large or run the other way; tested in HEK293T cells; further: on the % scale 0 is the no-effect control and ±100 the full control effect; nearly all actives have a fitted effect of over 45% in size; luciferase light after 4 h
Marburg entry inh: blocks Marburg virus binding to or entry into cells. Marburg virus pseudotyped entry inhibition, cell reporter; control for the full effect not named in the record; about a third of the inactives were read at about 46 µM. Potency, µM (top dose mostly 37.8 µM), for inactives: top-dose activity change, negative = inhibition, most hits filed as inhibitors. 1.8% of 300,000 active. AID 540276; active = well fitted inhibition curve with a large enough effect; inconclusive = small, poorly fitted or top-dose-only effect, or effect the other way; inactive = flat fitted curve, though single readings scatter; tested in HEK293 cells; about a fifth of its hits are not listed in these tables; further: on the % scale 0 is the no-effect control and ±100 the full control effect; luciferase read-out
Cruzain noTriton: cruzain (T. cruzi) inhibition without detergent | P25779 | purified cruzain, Z-FR-AMC fluorescence, no detergent | Potency, µM, for the others: max response, negative = inhibition, hits mostly inhibitors | 2.3% of 200,000 active;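 further: plate controls were enzyme without inhibitor for no effect and buffer without enzyme for full effect; nearly all actives have a fitted effect of over 40% in size; top concentration of the series not given in the record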
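Detergent-free condition (0.00005% Triton X-100) in acetate buffer pH 5.5 with DTT. 1.5 nM enzyme and compound were pre-mixed 15 min, then 2 uM Z-FR-AMC substrate added; reaction progress from fluorescence change between first and third reads (60 s).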
LASV entry inh: Lassa virus entry inhibition; Lassa virus pseudotype entry inhibition, cell reporter; control for the full effect not named in the record; Potency, µM (highest dose often 37.9 µM), inactives show at the top dose activity change, negative = inhibition, actives largely listed as inhibitors; 1.2% of 300,000 active; active means well fitted inhibition curve with a large enough effect; inconclusive means small, poorly fitted or top-dose-only effect, or effect the other way; inactive means flat fitted curve, though single readings scatter; tested in HEK293 cells; further: on the % scale 0 is the no-effect control and ±100 the full control effect; nearly all actives have a fitted effect of over 50% in size; luciferase read-out
NS1 inh: inhibitors of influenza NS1 protein function. S. cerevisiae slowed by influenza A NS1, growth recovery by OD600. Potency, µM (highest dose often 46.1 µM), inactives show top-dose activity, positive = more growth. 0.4% of 270,000 active; active means well fitted rising curve with a large enough effect; inconclusive means small, poorly fitted or top-dose-only effect; inactive means no such curve, though single readings can be large or run the other way; further: nearly all actives have a fitted effect of over 50% in size
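Compounds were scored for reversing the slow growth caused by influenza A NS1 in S. cerevisiae, measured by optical density at 600 nm. Assay medium contained 2% galactose at pH 6.0; NS1-free yeast of the same strain were the positive control.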
* hit, by the source's call; ? = inconclusive; . = no result given; & = joins results of further samples; [ ] = another dose, or the depositor's remark. Unless noted, the call rests on the fitted dose curve; in most records, active means well fitted curve in the direction sought with a large enough effect; inconclusive means small, poorly fitted or top-dose-only effect, or another doubt; inactive means no such curve, though single readings can be large; an effect the other way counts as inactive or inconclusive. Potency means the concentration at half of the fitted maximal effect. No enrichment for hits. Share with any hit: about 4.5%.

SMILES	Cruzain Triton	RE007 growth inh	SARS PLpro yeast	2A StopGo	Marburg entry inh	Cruzain noTriton	LASV entry inh	NS1 inh
Cc1ccc(-c2cn(-c3cccc(Cl)c3)c(S(=O)(=O)CC(=O)Nc3ccccc3F)n2)cc1	-15%	.	.	28%	-1%[46.1 µM]	16µM*	-6%[46.1 µM]	.
COCCN(CC1CCCN(C2Cc3ccccc3C2)C1)C(=O)CCC(C)=O (stereo not given)	.	-6%	-4%	4%	.	.	.	7%
O=C(CSc1oc(-c2ccccc2)nc1S(=O)(=O)c1ccc(Cl)cc1)c1ccccc1	-7.9%	.	.	29%	4%[46.1 µM]	?	?	.
CCOC(=O)N1CCC(NC(=O)c2cnn3c2NC(c2ccco2)CC3C(F)(F)F)CC1 (stereo not given)	-2.7%	-1%	.	-21%	1%	?	-4%	-3%
COc1ccc(OC)c(NC(=S)N2CCCC2)c1	.	-6%	2%	10%	14%[46.1 µM]	.	13%[46.1 µM]	-6%
Cc1cccc(CCN(C(=O)c2snc(C(N)=O)c2N)C(C(=O)NCC2CCCO2)c2ccc(F)cc2)c1 (stereo not given)	.	0%	1%	2%	?	.	-9%[46.1 µM]	13%
CC1(C)CC(=O)C(N=Nc2cc(S(=O)(=O)N3CCOCC3)ccc2Cl)=C(O)C1	.	17%	-1%	1%	.	.	.	2%
CCOC(=O)Cn1nc(/C=C/c2ccc(C)cc2)ccc1=O	-3.6%	-16%	-1%	-21%	?	1%	0%	-9%
COC(=O)c1c(NC(=O)CN(c2ccc(C)c(C)c2)S(C)(=O)=O)sc2c1CCCC2	-6.5%	1%	-15%	-8%	-11%	-8%	0%	24%
CCOc1cc(C=O)ccc1OCCCN1C(=O)NC(C)(C)C1=O	7.9%	7%	-6%	11%	0%	-4%	13%	5%
CC(OC(=O)CN1C(=O)c2ccccc2C1=O)C(=O)NC1CCCC1 (stereo not given)	.	-11%	1%	-3%	6%[46.1 µM]	.	4%	1%
Cn1nc(C(=O)Nc2ccc(S(=O)(=O)N3CCCCC3)cc2)c2ccccc2c1=O	.	8%	-8%	-21%	?	.	-20%	.
Cn1c(=O)c2[nH]c(SCc3cccnc3)nc2n(C)c1=S	.	2%	.	-6%	?	.	29%[46.1 µM]	.
Cc1ccc2oc3c(c(=O)c2c1)C(c1ccc(F)cc1)N(c1nc(C)c(C)s1)C3=O (stereo not given)	-0.9%	.	.	-22%	9%[46.1 µM]	-5%	-10%[46.1 µM]	.
O=[N+]([O-])c1cccc(C(=Nc2ccccc2Cl)NO)c1	-9.2%	1%	8%	-16%	-3%	8%	-3%	-7%
CCN(CC)c1ccc(N2C(=O)/C(=C/c3ccccn3)SC2=S)cc1	.	16%	-1%	-19%	-6%	.	?	5%
COc1ccc(-n2nc(C(=O)N(C)C)nc2-c2ccccc2)cc1	.	6%	-2%	13%	?	.	15%[46.1 µM]	?
CCCNC(=S)Nc1ccc(CC(=O)OC)cc1	-0.1%	-11%	19%	-1%	-2%	3%	-1%	-1%
Nc1nnc(SCc2cccc(C(F)(F)F)c2)s1	4.2%	-5%	-4%	29%	-24%	-8%	?	-3%
N#Cc1c2n(c3c(N)ncnc13)CCCCC2	.	2%	0%	-23%	2%	.	11%	4%

Two records drawn at random from those above, as already listed:
SMILES	Cruzain Triton	RE007 growth inh	SARS PLpro yeast	2A StopGo	Marburg entry inh	Cruzain noTriton	LASV entry inh	NS1 inh
N#Cc1c2n(c3c(N)ncnc13)CCCCC2	.	2%	0%	-23%	2%	.	11%	4%
CCCNC(=S)Nc1ccc(CC(=O)OC)cc1	-0.1%	-11%	19%	-1%	-2%	3%	-1%	-1%

New compounds follow.
SMILES	Cruzain Triton	RE007 growth inh	SARS PLpro yeast	2A StopGo	Marburg entry inh	Cruzain noTriton	LASV entry inh	NS1 inh
O=C(C1CCN(S(=O)(=O)c2cccnc2)CC1)N1CCN(c2ccccc2Cl)CC1	1.0%	-3%	.	?	-3%	2%	2%	-2%
COc1cc(CNC(C)C23CC4CC(CC(C4)C2)C3)ccc1OCC(=O)NC(C)(C)C (stereo not given)	.	-1%	-1%	-9%	6.3µM*	.	?	7%
COc1ccc(C(=O)NCCS(=O)(=O)N2CCc3ccccc3C2)cc1	.	18%	0%	16%	-1%	.	-1%[46.1 µM]	.
COc1ccc(OC)c(NC(=O)c2ccc(S(=O)(=O)N3CCOCC3)cc2)c1	.	-17%	5%	-23%	11%[46.1 µM]	.	?	-14%
COc1ccc(CCNC(=O)C2CCN(C(=O)c3ccccc3C)CC2)cc1	.	-5%	1%	-14%	?	.	0%[46.1 µM]	1%
COC(=O)C(C#N)C(c1cccnc1)c1c(C)[nH][nH]c1=O (stereo not given)	4.9%	-1%	1%	.	10%	-5%	-7%	10%
c1ccc(N2CCN(c3nc4cc5c(cc4s3)OCO5)CC2)cc1	-5.0%	7%	-1%	7%	-22%	13µM*	5%	8%
CC(=O)NC1=NN(C(C)=O)C(c2ccccc2)S1 (stereo not given)	.	-9%	0%	40%[activator]	22%[46.1 µM]	.	?	0%
O=C(/C=C/c1ccc(F)cc1)c1ccc(N2CCOCC2)cc1	.	-29%	-1%	5%	15%[46.1 µM]	.	42%	-4%
CC(C)(C)NC(=O)c1cc(C(C)(C)C)c(O)c(C(C)(C)C)c1	-2.5%	4%	18%	-18%	-7%	-1%	-21%	8%
COc1ccc(N=c2sc3ccccc3n2C)cc1	-2.5%	-16%	-14%	.	-14%	-10%	?	4%
CCC(C)NC(=O)CSc1nc2cc3c(cc2c(=O)n1CCCC(=O)NCCc1ccc(OC)c(OC)c1)OCO3 (stereo not given)	0.7%	.	.	-5%	.	-3%	?	.
O=C(OCc1ccccc1)C1=NNC2C(=O)N(c3ccccc3)C(=O)C12 (stereo not given)	-0.5%	-2%	2%	17%	-3%	-5%	8%	19%
O=C(NCc1cccnc1)Nc1ccc(Cl)cc1	.	6%	-1%	5%	17%[46.1 µM]	.	?	-8%
Cc1ccc(NC(=O)CSCc2ccco2)cc1	.	2%	-1%	21%	12%[46.1 µM]	.	-24%[46.1 µM]	.
O=C(N/C(=C\c1cccs1)C(=O)N1CCOCC1)c1cccs1	.	10%	-1%	-11%	3%[46.1 µM]	.	22%[46.1 µM]	6%
CCc1ccc(-c2nnn(CCC#N)n2)cc1	.	6%	-1%	28%	12%[46.1 µM]	.	0%[46.1 µM]	.
CCOC(=O)C1CCN(C(=O)c2cc(CN3C(=O)c4ccccc4C3=O)ccc2OCC)CC1	.	-7%	1%	-29%	21%[46.1 µM]	.	-2%	.
Cc1ccc(C(=O)Nc2ccccc2C(=O)NCc2cccnc2)cc1	.	-2%	-2%	8%	16%[46.1 µM]	.	-9%[46.1 µM]	4%
Cc1ccc(Cl)cc1N1CCN(C(=O)Cn2nc(C)c3sc4ccccc4c3c2=O)CC1	-6.9%	.	.	-19%	-19%[46.1 µM]	?	2%[46.1 µM]	.
Cc1ccccc1OCCCCn1cnc2ccccc21	-2.9%	-15%	8%	-23%	-22%	0%	-2%	-152%
Cc1ccc(S(=O)(=O)Nc2ccc(Nc3ccccc3)cc2)cc1	.	-13%	-24%	8%	?	.	-3%[46.1 µM]	-81%
COc1ccccc1C(CC(=O)Nc1ccc(Cl)cc1)c1ccc(OC(C)C)cc1 (stereo not given)	2.2%	3%	-12%	-13%	?	3.2µM*	-23%	3%
O=C(Cc1ccccc1)N1CCc2[nH]nc(-c3ccccc3)c2C1	.	-3%	0%	-9%	?	.	11µM*	-2%
CCNc1cc(N2CCN(C3CCCCC3)CC2)c2noc3c2c1C(=O)c1ccccc1-3	0.6%	.	.	-26%	?	-18%	7%[46.1 µM]	.
Cc1nn(C)c2c1c(C(F)(F)F)cc(=O)n2CC(=O)NC(C)(C)C	-4.2%	.	.	-24%	.	?	-8%[46.1 µM]	.
O=C(NCC(=O)N(c1ccc2c(c1)OCO2)C(C(=O)NC1CCCC1)c1cccs1)c1ccco1 (stereo not given)	0.0%	12%	-1%	-9%	5%[46.1 µM]	-6%	-8%	3%
O=C(Nc1cccc2c1CCCC2)c1ccccc1F	.	-6%	3%	22%	9%	.	6%	5%
CC1CCC2C(=O)N(c3cccc(C(=O)Nc4ccc(F)cc4)c3)C(=O)C2C1 (stereo not given)	.	-22%	-2%	?	0%	.	-3%	6%
COc1cc(C(=O)NC(=S)Nc2cccc3nc(C)ccc23)cc(OC)c1OC	.	-4%	1%	0%	-22%[46.1 µM]	.	-18%	12%
O=C(c1ccc2c(c1)N(Cc1cccc(Cl)c1)C(=O)c1ccccc1S2(=O)=O)N1CCCC1	-0.7%	.	.	-1%	.	?	-21%[46.1 µM]	.
Cc1cc(C)c2c(CN3CCOCC3)cc(=O)oc2c1C	.	-15%	-2%	1%	18%	.	25%	-11%
C[C@@H](O)C1NC(=O)[C@H](CCCCN)NC(=O)c2cc([N+](=O)[O-])cc(I)c2OCC[C@@H](C(N)=O)NC1=O (stereo not given in full)	-6.0%	-6%	-7%	-18%	20%	-5%	16%	-2%
N#CC1=C(N)N(c2ccccc2)C(c2cccc([N+](=O)[O-])c2)C1(C#N)C#N (stereo not given)	-8.1%	2%	10%	?	-20%	-10%	-19%	4%
Cc1cc(C)cc(-c2nnc(SCC(=O)NCC3CCCO3)o2)c1 (stereo not given)	.	0%	.	8%	6%[46.1 µM]	.	0%	.
Cc1cccc(C(=O)Nc2nnc(S(=O)(=O)N(C)Cc3ccco3)s2)c1	-2.5%	-12%	-2%	7%&36%	?	1%	6%&2%[46.1 µM]	4%
CC(=O)Nc1ccc(NC(=S)NC(=O)C2CC2)cc1	.	7%	3%	65%[activator]	5%	.	-1%	8%
CCCn1cc(S(=O)(=O)c2ccccc2)c(=O)c2cc(F)c(N3CCCC3)cc21	-2.9%	.	.	6%	.	-7%	?	.
C=CC[n+]1c(C)csc1Nc1cccc(Br)c1	.	-5%	-7%	5%	-1%[46.1 µM]	.	4%[46.1 µM]	.
Cc1ccc(NC(=O)Cn2cc(C(=O)C3CC3)c3ccccc32)c(C)c1	-1.0%	-15%	2%	?	-17%&-2%[46.1 µM]	-2%	-2%	-2%
Cc1cc(N/N=C/c2ccccc2O)nc(N2CCOCC2)n1	.	-22%	-1%	7%	?	.	-44%	-4%
